# Compound activity (PubChem)
# Mtb hypoxia inh: reduces hypoxia-regulated biosensor signal in M. tuberculosis; 300,000 tested, 0.1% active; fluorescence inhibition, % (concentration not given with the values); M. tuberculosis hypoxia-regulated fluorescent reporter, fluorescence;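 active = 35 to 45% if threefold the growth effect, above 45% if 1.5-fold the growth effect; inactive = the rest, general growth blockers included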;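 also: wells of about 50 µL received 100 nL stock; 0% = vehicle wells and 100% = reference inhibitor wells; whole bacteria with a GFP reporter of the hypoxia response; strong numbers were not always called active; many hits fall short of the cut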
# BJeLR viability: BJeLR cell viability loss; BJeLR (HRASV12) viability, CellTiter-Glo ATP luminescence, 48 h; reference of the scale not given here; inhibition, % (test concentration not listed); 300,000 tested, 0.17% active; AID 1554;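 active = replicate mean above 50%; inconclusive = above 50% but judged a plate artefact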;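 also: 50 nL library stock added to about 25 µL; numbers are from one replicate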
# Bead autofluor: compound fluorescence in toxin protease inhibitor counterscreen | AID 624483 | compound autofluorescence counterscreen, microsphere flow cytometry; hits give high values | fluorescence intensity (concentration not given with the values) | 360,000 tested, 3.1% active;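 active = at least 3 SD above the mean of all compounds, about 16000 in these data; inconclusive = too few beads counted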;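 also: 100 nL of 1 mM stock went into each well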
# Sa ugtP lethal: kills S. aureus RN4220 lacking UgtP | S. aureus RN4220 ugtP deletion, OD600 growth, 16 h; some inactives read as strong as hits | growth inhibition, % (no concentration beside the values) | AID 1259309 | 330,000 tested, 0.54% active;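 active = z-score under -3 and OD600 up to 0.15 on both plates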;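 also: plate controls were untreated wells for no effect and antibiotic for full effect; wells of about 80 µL received 100 nL stock; the first replicate is given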
# PrP 5UTR inh: suppresses PrP 5' UTR mRNA reporter expression; cell-based PrP 5' UTR mRNA reporter, plate reader; 340,000 tested, 0.35% active; inhibition, % (no concentration beside the values);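 active = every replicate at 50% or more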;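 also: 0 = median of the neutral control wells; tested in H4 reporter cells; numbers are from one replicate; inactives centre near -14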
# RN4220 kill: kills Staphylococcus aureus RN4220; inhibition, % (no concentration beside the values); 330,000 tested, 0.33% active; S. aureus RN4220 growth, OD600, 16 h;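 active = z-score of -3 or lower and OD600 up to 0.18 on both plates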;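 also: plate controls were untreated cells for no effect and reference antibiotic for full effect; stock transfer was 100 nL into about 80 µL; one replicate is shown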
# Mtb hypoxia inh growth: also measured in Mtb hypoxia inh; calls as there; growth inhibition, %; measured here: M. tuberculosis growth (absorbance);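 0% = vehicle and 100% = reference antibiotic; read after six days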
# * hit, by the source's call; ? = inconclusive; . = not tested or not shown. The order is random; overall some 4% were active at least once.
# Every second line gives: Mtb hypoxia inh | Mtb hypoxia inh growth | BJeLR viability | Bead autofluor | Sa ugtP lethal | PrP 5UTR inh | RN4220 kill
1. C[n+]1cc(-c2ccccc2)oc1-c1ccccc1
    10 | 9 | 0 | 5847 | 14 | -30 | 4.0
2. CCCN(CCC)C(=O)c1cc(-c2ccc3c(c2)OCO3)nc2ccccc12
    . | . | -9 | 3662 | 10 | 9 | 13
3. O=c1c(Cl)c(N2CCOCC2)cnn1-c1ncc(C(F)(F)F)cc1Cl
    -2 | 10 | -6 | 4574 | 4 | -2 | 6.5
4. CS(=O)(=O)N(Cc1ccccc1Cl)c1ccc(C(=O)NCc2cccnc2)cc1
    -2 | 4 | 30 | 1960 | 1 | -8 | 3.7
5. O=C(NCC1CCCO1)c1ccc2c(c1)ncn2-c1cccc(F)c1 (stereo not given)
    -4 | -9 | -10 | 5325 | -5 | -12 | -5.9
6. COc1ccc(C(=O)C(OC(=O)c2ccc(C)c(NC(C)=O)c2)c2ccccc2)cc1 (stereo not given)
    5 | 18 | -4 | 9494 | -9 | -9 | -1.7
7. COC(=O)/C(=C/c1ccco1)NC(=O)c1ccco1
    3 | 2 | -10 | 2428 | 2 | -15 | 2.3
8. O=C(CNC(=O)c1ccc(S(=O)(=O)N2CCCC2)cc1)N/N=C/c1ccccc1Cl
    . | . | 26 | 7272 | . | -13 | .
9. Cc1ccc(NC(=O)CN2C(=O)/C(=C\c3cccs3)SC2=S)cc1
    4 | 9 | 2 | 1937 | 0 | -6 | 4.6
10. CCn1cc(C(=O)N[C@H](C(=O)NCCCO)C(C)C)c(=O)c2cc3c(cc21)OCO3
    6 | 2 | -1 | 3759 | 3 | -3 | 3.2
11. C/C(=N\NC(=O)CNc1cccc(C)c1)c1ccc(Br)s1
    . | . | -13 | 8547 | . | -37 | .
12. CCOc1ccc(C2C(C(=O)c3ccco3)=C(O)C(=O)N2CCCn2ccnc2)cc1OC (stereo not given)
    7 | -1 | 8 | 5509 | 4 | -19 | 1.9
13. COc1ccc(C2c3c(ccc4ccccc34)Oc3ncn4nc(CO/N=C/c5ccccc5)nc4c32)cc1 (stereo not given)
    . | . | -5 | ? | . | -4 | .
14. CCc1cccc(CC)c1-n1c(-c2cccnc2)n[nH]c1=S
    14 | 13 | -17 | 4201 | 5 | -25 | 3.5
15. NCCc1nnc(SCc2ccc(F)cc2)o1
    -13 | -5 | -8 | ? | -5 | -20 | 1.6
16. COc1cccc(CNC(=O)CC2C(=O)NCCN2CCCc2ccccc2)c1 (stereo not given)
    2 | 0 | 14 | . | 10 | -8 | 4.1
17. COc1ccc(CCNC(=O)c2c([S-])n(-c3ccc(C)cc3)c3cccc[n+]23)cc1
    8 | 8 | 4 | 5230 | 7 | -7 | 11
18. COc1cc(/C=C/C(=O)O)cc(S(=O)(=O)NCc2ccco2)c1OC
    -2 | 15 | 0 | 3969 | 2 | -6 | -2.5
19. CC(=O)Nc1c2c(nn1-c1ccc(C)cc1)CS(=O)(=O)C2
    6 | 4 | 3 | 3879 | 12 | -21 | 3.1
20. O=C(O)CC1(CC(=O)Nc2ccc3sccc3c2)CCCCC1
    1 | 5 | -15 | 3759 | -3 | . | 8.7
21. Cc1ccc(N2C(=O)NC(=O)C(CCc3ccncc3)(Cc3cccc(Cl)c3Cl)C2=O)cc1 (stereo not given)
    -1 | 8 | 0 | 2219 | 1 | -11 | 4.2
22. S=c1[nH]cc(Cc2ccccc2)s1
    0 | -1 | 9 | 7451 | -8 | 3 | -3.6
23. O=C(NC(Cc1c[nH]c2ccccc12)C(=O)O)/C(=C/c1ccc(F)cc1)NC(=O)c1ccccc1 (stereo not given)
    . | . | 5 | 4391 | . | -20 | .
24. COc1ccc(C(O)CNc2ccc(C)cc2)cc1 (stereo not given)
    . | . | -3 | 4656 | 1 | -21 | -1.8
25. COc1ccccc1CC(NC(C)=O)C(=O)NC1CCN(S(=O)(=O)c2ccccc2)CC1 (stereo not given)
    4 | -7 | -9 | 4362 | 9 | -16 | 1.6
26. CC1Cc2ccccc2N1C(=O)COC(=O)Cn1cnc2ccccc2c1=O (stereo not given)
    6 | 5 | 8 | 9814 | 1 | -25 | -3.7
27. CN(C)c1nc(N)nc(CSc2nnnn2-c2cccc3ccccc23)n1
    5 | 11 | 15 | 16799* | 7 | 6 | 7.8
28. CC(=O)Nc1ccc(NC2CCCCC2NS(=O)(=O)c2ccccc2)cc1 (stereo not given)
    11 | 7 | -7 | 5191 | 1 | 9 | 0.8
29. O=C1OCC(CO)(CO)N=C1NNc1ccccc1[N+](=O)[O-]
    6 | 9 | 10 | 3634 | 12 | -18 | 3.9
30. CCC1=C(OC(=O)N(CC)CC)N2C(=O)OC(=NCc3ccccc3)[C@]2(C)[C@H]2C1=CC[C@H]1C(=O)N(CC)C(=O)[C@H]12
    . | . | -2 | 3474 | . | -14 | .

# Part of the list above, limited to RN4220 kill and Sa ugtP lethal.
No.	Molecule	RN4220 kill	Sa ugtP lethal
24	COc1ccc(C(O)CNc2ccc(C)cc2)cc1 (stereo not given)	-1.8	1
25	COc1ccccc1CC(NC(C)=O)C(=O)NC1CCN(S(=O)(=O)c2ccccc2)CC1 (stereo not given)	1.6	9
26	CC1Cc2ccccc2N1C(=O)COC(=O)Cn1cnc2ccccc2c1=O (stereo not given)	-3.7	1
27	CN(C)c1nc(N)nc(CSc2nnnn2-c2cccc3ccccc23)n1	7.8	7

# Reformatted in transposed form: entries from further up.
[23] O=C(NC(Cc1c[nH]c2ccccc12)C(=O)O)/C(=C/c1ccc(F)cc1)NC(=O)c1ccccc1 (stereo not given)
[11] C/C(=N\NC(=O)CNc1cccc(C)c1)c1ccc(Br)s1
[18] COc1cc(/C=C/C(=O)O)cc(S(=O)(=O)NCc2ccco2)c1OC
[2] CCCN(CCC)C(=O)c1cc(-c2ccc3c(c2)OCO3)nc2ccccc12
[9] Cc1ccc(NC(=O)CN2C(=O)/C(=C\c3cccs3)SC2=S)cc1
[8] O=C(CNC(=O)c1ccc(S(=O)(=O)N2CCCC2)cc1)N/N=C/c1ccccc1Cl
assay / entry	23	11	18	2	9	8
Mtb hypoxia inh	.	.	-2	.	4	.
Mtb hypoxia inh growth	.	.	15	.	9	.
BJeLR viability	5	-13	0	-9	2	26
Bead autofluor	4391	8547	3969	3662	1937	7272
Sa ugtP lethal	.	.	2	10	0	.
PrP 5UTR inh	-20	-37	-6	9	-6	-13
RN4220 kill	.	.	-2.5	13	4.6	.

# The list goes on.
# Every second line gives: Mtb hypoxia inh | Mtb hypoxia inh growth | BJeLR viability | Bead autofluor | Sa ugtP lethal | PrP 5UTR inh | RN4220 kill
31. CC(C)CNC(=O)/C(C#N)=C1\N=C(NC(=O)c2ccco2)c2ccccc21
    4 | -1 | -6 | 4121 | 8 | -36 | 7.7
32. O=C(CSc1nc2ccccc2n1CC(=O)N1CCCCC1)N1CCCCC1
    3 | 3 | 2 | 4646 | 7 | -25 | 5.1
33. COc1cc2c(cc1OC)C(C)N(C(=O)c1cccc([N+](=O)[O-])c1)CC2 (stereo not given)
    -3 | 10 | 7 | 3501 | -7 | -11 | 0.0
34. COc1ccc2c(c1)C(C)=CC(C)(C)N2S(=O)(=O)c1ccc(C)cc1
    13 | 7 | 31 | 4075 | 1 | 25 | 7.4
35. COc1ccc(C(=O)OCC(=O)NC2CCCCCCC2)cc1OC
    -6 | -4 | . | 4604 | -3 | -11 | -1.5
36. CC(C)(C)N1C(=O)c2ccc(C(=O)NCc3ccco3)cc2C1=O
    1 | -1 | -6 | 3404 | 8 | -3 | 0.9
37. CCCN1Cc2cccc(C(=O)N3CCN(c4ccc(OC)cc4)CC3)c2C1=O
    2 | -4 | 1 | 2249 | 3 | -4 | 1.9
38. CC1(C)Cc2c(sc(NC(=O)C(=O)NCC3CCCO3)c2C(=O)O)CO1 (stereo not given)
    -6 | 0 | 0 | 4374 | 1 | -4 | -3.5
39. CN1CCC(N(C)C(=O)COc2ccccc2-c2ccccc2)CC1
    -8 | 4 | 0 | 5963 | 1 | -29 | 5.8
40. Cc1cc(C=NO)c(C)n1-c1ccncc1
    4 | 3 | . | . | 0 | . | -8.0
41. CCCCn1c(=O)c(C(=O)Nc2ccccc2C)c(O)c2ccccc21
    9 | 2 | 2 | 3795 | 16 | -10 | 5.5
42. COc1ccc2ccc(C(C)(C(C)=O)C(=O)OC(C)C)cc2c1 (stereo not given)
    13 | 3 | . | 3724 | 8 | -18 | 9.0
43. CC(C(=O)C12CC3CC(CC(C3)C1)C2)N1CCOCC1 (stereo not given)
    7 | 0 | -14 | 3494 | 5 | -22 | 5.4
44. Cc1cc(C)c2[nH]c(O)c(N=NC3=NC(=O)CS3)c2c1
    0 | 7 | 2 | 4393 | 10 | -28 | 4.7
45. Cc1c(Br)c([N+](=O)[O-])nn1CCCC(=O)N1CCN(c2ccccc2)CC1
    5 | 4 | 14 | 2708 | 2 | -13 | 0.1
46. O=C1c2ccccc2C(=O)N1Cc1nc2ccccc2c(=O)n1-c1cccnc1
    15 | -12 | -3 | 3001 | -3 | -9 | -11
47. COc1ccc(S(=O)(=O)N2CCN(C(=S)NC3CCCCC3)CC2)cc1
    3 | 7 | 2 | 4291 | 5 | -21 | 3.0
48. CC(C)N(Cc1ccccc1)C(=O)CN1C(=O)COc2ccc(S(=O)(=O)N3CCCCCC3)cc21
    18 | 6 | 2 | 5747 | -1 | -8 | 4.5
49. COCCCNc1nc2c(-c3ccc(Cl)cc3)nnn2c2ccccc12
    5 | 7 | -3 | 5803 | 3 | -13 | 0.2
50. CCCC(NC(=O)C(C)NC(=O)CON=C1C=C2CCC3C4CCC(C(C)=O)[C@@]4(C)CCC3[C@@]2(C)CC1)C(=O)O (stereo not given in full)
    2 | -3 | . | . | 6 | . | 2.3
51. CCOC(=O)NC(=O)CSc1cc(C)c2cc(C)cc(C)c2n1
    8 | 3 | -9 | 3143 | 5 | -25 | 6.2
52. CCOc1ccccc1NC(=O)c1ccccc1-c1nc(-c2ccccc2OC)no1
    . | . | . | 2501 | -5 | -17 | -0.3
53. CCC(C(=O)OCC(=O)NC1CCS(=O)(=O)C1)c1ccccc1 (stereo not given)
    3 | 8 | 10 | 5862 | 0 | -3 | -0.2
54. O=C(Nc1nc(-c2cccs2)cs1)c1ccco1
    16 | 3 | -6 | 3579 | -13 | -99 | 14
55. O=c1cc(-c2ccc(F)cc2)[nH][nH]1
    8 | -4 | -6 | 8621 | 4 | -24 | 5.1
56. COc1ccc(C(=O)Nc2nc3ccccc3[nH]2)cc1
    -14 | 2 | 15 | 5602 | -1 | 59 | 4.0
57. CC(O)c1nc2c(c(=O)n(C)c(=O)n2C)n1C (stereo not given)
    8 | 2 | -9 | 4475 | -5 | -34 | 4.2
58. CC(C)C(C(=O)NCc1ccco1)N(CC1CCCO1)C(=O)CNS(=O)(=O)c1ccccc1 (stereo not given)
    14 | 11 | 2 | 4239 | 5 | 68* | 6.1
59. COC(=O)Cc1c(C)c2cc(Cl)c(OC(=O)c3ccco3)cc2oc1=O
    8 | 9 | 10 | 2931 | -5 | -27 | -6.7
60. C=CC(c1ccccc1)C(C(=O)c1ccccc1)N(C)C (stereo not given)
    8 | 9 | . | 4273 | 4 | -25 | 8.5

# 2 entries drawn at random from the list so far, as already listed:
# Every second line gives: Mtb hypoxia inh | Mtb hypoxia inh growth | BJeLR viability | Bead autofluor | Sa ugtP lethal | PrP 5UTR inh | RN4220 kill
31. CC(C)CNC(=O)/C(C#N)=C1\N=C(NC(=O)c2ccco2)c2ccccc21
    4 | -1 | -6 | 4121 | 8 | -36 | 7.7
40. Cc1cc(C=NO)c(C)n1-c1ccncc1
    4 | 3 | . | . | 0 | . | -8.0

# (next part)
# Every second line gives: Mtb hypoxia inh | Mtb hypoxia inh growth | BJeLR viability | Bead autofluor | Sa ugtP lethal | PrP 5UTR inh | RN4220 kill
61. Cc1cc(S(=O)(=O)Nc2ccc(C(=O)N3CC(C)OC(C)C3)cc2)ccc1F (stereo not given)
    2 | 2 | 5 | 5585 | 2 | -3 | 3.3
62. NC(=O)CSc1nc2c(c(=O)n1-c1ccccc1)C1(CCCCC1)Cc1ccccc1-2
    6 | 1 | 8 | 2046 | 90* | -11 | -7.5
63. COc1cc(OC)c(N(C)S(=O)(=O)c2cccc(C(=O)OCC(=O)N(C)Cc3ccccc3)c2)cc1Cl
    5 | -1 | . | 3964 | 0 | -37 | 0.6
64. COC(=O)c1c(NC(=O)CSc2nc3ccccc3c(=O)n2-c2ccccc2)sc(C)c1C
    13 | 4 | 4 | 2488 | 7 | -13 | 1.3
